# From PubChem BioAssay
# NPYLR7 ag: mosquito NPYLR7 agonism; HEK293T NPYLR7/Galpha15, GCaMP6s calcium fluorescence; activation, % at 10 µM; hit rate 0.15% among 270,000; AID 1259423; in the data active means activation above about 40%;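 further: 0% = vehicle and 100% = reference agonist at the receptor; some compounds past the cut are filed as inactive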
# NPYLR7 ag max-min: second read-out of NPYLR7 ag, no call of its own (marks repeat the call); activation, %; measured here: Max-Min RFU normalised activation; some inactives read as strong as hits;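 span of the calcium signal over five minutes; 0% = vehicle and 100% = native peptide agonist; compound fluorescence can raise it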
# * hit, by the source's call; & = joins results of further samples. Only part of the results is shown, so the mix of outcomes need not match the whole.
SMILES,NPYLR7 ag,NPYLR7 ag max-min
CCCC1C(C)CCCN1C(=O)c1ccc2c(c1)NC(=O)CS2 (centres undefined),1,-1
CCOc1ccc(C(=O)NCC(c2ccc(N(C)C)cc2)N(C)C)cc1 (centres undefined),3,1
Cn1cc(/C=C/C(=O)c2cccc(F)c2)cc1/C=C/C(=O)NO,-8,-10
CON(C)C(=O)c1cc(-c2ccco2)[nH]n1,9,4
Cc1cc(C(=O)Nc2ccc(OC(F)F)c(Cl)c2)on1,5,2
COc1ccc(/C(C)=N\N=C(N)SC2CC(=O)N(c3ccccc3F)C2=O)cc1F (centres undefined),-15,-19
Cn1cnnc1SCc1cc(=O)c(OC(=O)c2ccccc2)co1,-8,-10
CC(C)N(CC(=O)N(Cc1ccc2c(c1)OCO2)Cc1ccco1)C(=O)C(c1ccccc1)c1ccccc1,0,6
CC(=O)N(C)Cc1nc(-c2cccc(Cn3nc(C)cc3C)c2)no1,7,4
CC(C)(C)c1ccc(C2=N/C(=C\C(Cl)=C\c3ccccc3)C(=O)O2)cc1,-1,-5
Cc1nc(C(C)NC(=O)c2cccc(C#CC(C)(C)O)c2)n[nH]1 (centres undefined),16,10
O=C(NC1CC1)C(C1CCCC1)N1CCN(C(=O)c2cccs2)CC1 (centres undefined),8,10
Cc1cccc(C=C2SC(=S)N(CCCN3CCOCC3)C2=O)c1,32,30
CCC(C)Cc1c(C)sc2nc(CSc3nnc(C4CC4)n3C3CC3)[nH]c(=O)c12 (centres undefined),4,6
O=C1c2cc(Cl)c(Cl)cc2C(=O)N1CN(Cc1cccnc1)C1CC1,2,0
CC1=CC(C)(C)N2C(=O)C(=O)c3cc(O)cc1c32,-3,-4
CCCCC(CC)C(=O)N1CCN(c2nc3nccc(-c4ccc(N5CCOCC5)cc4)n3n2)CC1 (centres undefined),14,10
O=S(=O)(NCCNc1ccc(Nc2cccnc2)nn1)c1ccccc1C(F)(F)F,-1,-1
Cn1c(-c2nc(C(=O)NCCCN3CCCC3=O)cs2)cc2ccccc21,0,-3
COCCCN(CC(=O)N(CCc1c[nH]c2ccccc12)Cc1ccc(C(F)(F)F)cc1)C(=O)Nc1ccc(Cl)cc1,-4,-10
O=S(=O)(c1ccc2c(c1)CCCC2)N(CCCO)c1ccccc1,0,13
Cc1cc2oc(=O)cc(CN(C)C3CCCC3)c2cc1C,1,-2
CCc1cccc(N2CCC(NC(=O)c3csc(-c4ccccn4)n3)CC2)c1,0,13
COc1ccc(CCN(Cc2ccc(C)s2)C(=O)CN(C(=O)Nc2ccc(SC)cc2)C2CCCCC2)cc1OC,2,10
COc1cccc(Nc2nc(CN)cs2)n1,-3,-8

# Additional records follow.
SMILES,NPYLR7 ag,NPYLR7 ag max-min
CC1(C(=O)NC2CCC2)CCN1C(=O)Cc1cccc2ccccc12 (centres undefined),-5,-9
CC1CCCN(C(=O)c2ccccc2N(C)C(=O)c2cccs2)C1 (centres undefined),2,0
CCOc1ccc(N2CCn3c(SCc4ccccc4)nnc32)cc1,4,4
CN(C(=O)CCN1C(=O)c2ccc(Br)cc2C1=O)c1ccccc1,-2,5
Cc1ccc(Cn2nnc3c(=O)n(CC(=O)Nc4ccc(C)cc4)cnc32)cc1,6,5
O=C(c1n[nH]c2c1CCC2)N(Cc1cccnc1)CC1CCCN(C2CCCCC2)C1 (centres undefined),-5,-8
CC(C)N1CCc2c(sc(NC(=O)C(c3ccccc3)c3ccccc3)c2C#N)C1,24,26
C=CCCC(CN1CCCC1)Oc1nccc(OC)n1 (centres undefined),3,3
C=CCSc1nnc2c(n1)OC(C)Nc1ccccc1-2 (centres undefined),2,-2
COC(=O)c1cc(-c2ccc(Cl)cc2Cl)nc2c1c(=O)n(C)c(=O)n2C,-2,-1
O=C(c1ccc(Cl)cc1O)N1CCC2(CCOCC2)CC1,3,1
CC1Cc2ccccc2N1C(=O)NCC(c1cccs1)N(C)C (centres undefined),-1,-4
Nc1ccc2nc(N3CCOCC3)sc2c1,-5,-7
O=C(COCc1ccccc1)NCCNc1nc(-c2cccc(Br)c2)nc2ccccc12,3,15
CCCn1nccc1C(=O)N1CCNC(=O)C1c1ccc(F)cc1 (centres undefined),10,8
OC(c1ccccc1)(c1nc(/C=C/c2ccccc2)cs1)C(F)(F)F (centres undefined),6,2
Cc1ccc(OCC2CCCN(C(=O)CCn3nc(C)c(C)c3C)C2)cc1 (centres undefined),-1,-2
CCOC(=O)c1cc(-c2ccc(N3CCN(C(=O)C(C)Oc4ccccc4)CC3)cc2)n(-c2cccc(F)c2)n1 (centres undefined),13,5
Cc1cccc(NC(=O)NCC(c2ccccc2)N2CCCC2)c1 (centres undefined),1,5
N#Cc1c(NC2=CC(=O)CCC2)sc2c1CCCC2,-1,-4
Cc1ccc(N2C(=O)CSC23CCN(C(=O)C2CCCC2)CC3)cc1,5,5
COc1ccc(S(=O)(=O)N(Cc2nccn2Cc2cccc(Cl)c2)C2CC2)cc1,6,16
CC(=O)NC(C)CCc1ccc(-c2csc(C)n2)cc1 (centres undefined),-4,-5
COc1ccccc1-c1cc(C(=O)O)n2nc(C(C)(C)C)cc2n1,-4,4
CC(=O)Oc1ccc(C)c2ccc(/C=C/c3ccccc3[N+](=O)[O-])nc12,1,3

# Following part.
SMILES,NPYLR7 ag,NPYLR7 ag max-min
O=C(NCc1ccccc1)c1coc(CN(Cc2ccc3c(c2)OCO3)Cc2ccccc2Cl)n1,20,24
CCc1nc2cc(Br)c(C)c(C)c2nc1CC,9,10
C=Cc1ccc(Cn2c(C)c(C(=O)NCC3CC3)sc2=O)cc1,-2,-3
COc1cc(OC)cc(C(=O)N2CCN(C(=O)CCN3CCc4sccc4C3c3cccc(F)c3)CC2C)c1 (centres undefined),15,0
COCC(=O)N1CCN(c2ccc(C)c(F)c2)C(=O)C1C (centres undefined),8,31
CN1CCN2CCN(C(=O)CC3=CCNCC3)CC2C1 (centres undefined),28,14
O=C(NCc1ccc(F)cc1)C(=O)Nc1ccc(Cl)c(N2CCCS2(=O)=O)c1,10,3
COc1ccc(NC(=O)Nc2cccc(-c3ccc(N4CCCC4)nn3)c2)cc1,4,2
CC(=O)S[C@@H]1CC2=CC(=O)CC[C@]2(C)[C@H]2CC[C@@]3(C)[C@@H](CC[C@@]34CCC(=O)O4)C12 (some centres undefined),-4,-7
CC1c2cccn2CCN1C(=O)CCN1CCCCO1 (centres undefined),1,4
Cc1cccc(Oc2cc(N3CCN(C(=O)C(C)Cl)C(C)C3)ncn2)c1 (centres undefined),-8,-3
CSCCSc1nc(-c2cccs2)c(-c2cccs2)[nH]1,10,14
CCCCc1ccc(NC(=O)Cn2cc(OC)c(=O)cc2CSc2nc(C)cs2)cc1,-5,-9
Cc1oc(-c2ccccc2)nc1C(=O)N1CCCC(C(=O)NC2CC2)C1 (centres undefined),2,1
COc1ccc(OC)c(-c2cnc(-c3ccc(CNC(=O)c4c(C)noc4C)cc3)[nH]2)c1,29,36
Cc1nc(C(=O)O)nn1-c1cc(Cl)ccc1Cl,-6&11,-7&9
COc1ccc(-c2nnc(N)o2)cc1OC,2,1
O=C(c1ccc([N+](=O)[O-])o1)N1CCC(c2cn(Cc3cccc(F)c3)c3ccccc23)CC1,31,41
O=C(CCC1CCCN(C2CCN(c3ccccc3F)CC2)C1)N1CCCC1 (centres undefined),3,2
COc1ncc(-c2ccc(O)cc2)c(OC)n1,1,-6
O=C(O)c1ccccc1OCc1ccncc1,-2,-4
O=C(Cn1nc2sc3ccccc3n2c(=O)c1=O)NC(=O)Nc1ccccc1,10,13
CCOC(=O)N1CCN(C(c2cccc(C)c2)C2Sc3nc(CC)nn3C2=O)CC1 (centres undefined),-3,-10
COc1ccc(F)cc1S(=O)(=O)NC(c1ccccc1)c1ccccc1,7,4
CCSc1nc(NCC(C)C)c2cnn(CCNC(=O)C3CC3)c2n1,-3,-4

# In a second layout: results already given
molecule	NPYLR7 ag	NPYLR7 ag max-min
CN1CCN2CCN(C(=O)CC3=CCNCC3)CC2C1 (centres undefined)	28	14
O=C(NCc1ccc(F)cc1)C(=O)Nc1ccc(Cl)c(N2CCCS2(=O)=O)c1	10	3
COc1ccc(NC(=O)Nc2cccc(-c3ccc(N4CCCC4)nn3)c2)cc1	4	2
CC(=O)S[C@@H]1CC2=CC(=O)CC[C@]2(C)[C@H]2CC[C@@]3(C)[C@@H](CC[C@@]34CCC(=O)O4)C12 (some centres undefined)	-4	-7
CC1c2cccn2CCN1C(=O)CCN1CCCCO1 (centres undefined)	1	4
Cc1cccc(Oc2cc(N3CCN(C(=O)C(C)Cl)C(C)C3)ncn2)c1 (centres undefined)	-8	-3
CSCCSc1nc(-c2cccs2)c(-c2cccs2)[nH]1	10	14
CCCCc1ccc(NC(=O)Cn2cc(OC)c(=O)cc2CSc2nc(C)cs2)cc1	-5	-9
Cc1oc(-c2ccccc2)nc1C(=O)N1CCCC(C(=O)NC2CC2)C1 (centres undefined)	2	1
COc1ccc(OC)c(-c2cnc(-c3ccc(CNC(=O)c4c(C)noc4C)cc3)[nH]2)c1	29	36
Cc1nc(C(=O)O)nn1-c1cc(Cl)ccc1Cl	-6&11	-7&9
COc1ccc(-c2nnc(N)o2)cc1OC	2	1
O=C(c1ccc([N+](=O)[O-])o1)N1CCC(c2cn(Cc3cccc(F)c3)c3ccccc23)CC1	31	41
O=C(CCC1CCCN(C2CCN(c3ccccc3F)CC2)C1)N1CCCC1 (centres undefined)	3	2
COc1ncc(-c2ccc(O)cc2)c(OC)n1	1	-6
O=C(O)c1ccccc1OCc1ccncc1	-2	-4
O=C(Cn1nc2sc3ccccc3n2c(=O)c1=O)NC(=O)Nc1ccccc1	10	13
CCOC(=O)N1CCN(C(c2cccc(C)c2)C2Sc3nc(CC)nn3C2=O)CC1 (centres undefined)	-3	-10
COc1ccc(F)cc1S(=O)(=O)NC(c1ccccc1)c1ccccc1	7	4
CCSc1nc(NCC(C)C)c2cnn(CCNC(=O)C3CC3)c2n1	-3	-4

# More results follow:
SMILES,NPYLR7 ag,NPYLR7 ag max-min
COc1cc(N)cc(OC)c1OC,4,1
CCOC(=O)Cc1csc(NC(=O)Nc2ccccc2)n1,-12,-14
CC(NC(=O)N1CCC(c2ccccc2)CC1)c1cccc(S(N)(=O)=O)c1 (centres undefined),-5,-6
Cc1cccc(NC(=O)Nc2ccc(Nc3cc(-n4ccnc4)ncn3)cc2)c1,-14,-20
CCOCCCNC(=O)CCc1nnc2n(Cc3ccccc3Cl)c(=O)c3ccccc3n12,-4,-7
O=C(CNc1cnc2ccccc2n1)N1CCCC1,-26,-29
Cc1cc(NC(=O)CN2c3ccccc3OCC2C)n(-c2ccc(F)cc2)n1 (centres undefined),-1,-1
Cc1nnc(NC(=O)C2CCCC2)s1,3,10
C/C(=C(/NC(=O)c1ccccc1)C(=O)NC1CCCCC1)c1ccc(C)cc1,-6,-5
O=C1CN(CC(=O)N2CCCC(c3[nH]ncc3-c3ccc(F)cc3)C2)C(=O)N1 (centres undefined),1,0
CC1CCN(C(=O)CSc2nnc3ccc(-c4cccnc4)nn23)CC1,-18,-12
Cc1ccc(-n2nnnc2NC2CC=CC2)cc1,3,316
CCCN(CCC(=O)Nc1ccc(OC)cc1)c1nc(-c2cccs2)nc2ccccc12,2,14
COc1ccc2oc(C(F)(F)C(F)F)cc(=O)c2c1,1,-2
CN(Cc1ccsc1)C(=O)C1CCC(=O)N(Cc2ccccn2)C1 (centres undefined),16&8,8&8
Cc1ncc(CN2CCOC(Cc3cccc4ccccc34)C2)n1C (centres undefined),17,12
Cc1nc(Nc2ccc(NC(=O)C(C)Oc3ccccc3)cc2)cc(-n2ccnc2)n1 (centres undefined),-20,-24
Cc1cc(Br)ccc1SCC(=O)NC(C)(C(N)=O)c1ccccc1 (centres undefined),17,2
COc1ccc2cc(C(=O)Nc3ccccc3)c(=N)oc2c1,-6,-7
Cc1nc(Cl)cc(NCc2ccccc2CO)n1,12,7
Cc1cccc(S(=O)(=O)NC(=O)C2(C)CCN2C(=O)CC2CC2)c1 (centres undefined),1,2
COCCOCC(=O)N1CCc2c([nH]c3ccccc23)C1C(C)C (centres undefined),9,-2
O=C1CS/C(=N\N=C2C3CC4CC(C3)CC2C4)N1,5,8
OCC1(CSc2ccc(F)cc2)COC1,17,7
c1ccc2c(-c3nnc(SCc4ccc5c(c4)OCO5)o3)c[nH]c2c1,0,1

# Compound profiles, as listed above.
# Cc1ccc(-n2nnnc2NC2CC=CC2)cc1 as listed: NPYLR7 ag: 3; NPYLR7 ag max-min: 316
# Cc1cc(Br)ccc1SCC(=O)NC(C)(C(N)=O)c1ccccc1 (centres undefined) as listed: NPYLR7 ag: 17; NPYLR7 ag max-min: 2

# Next compounds
SMILES,NPYLR7 ag,NPYLR7 ag max-min
COCc1nc(CNC(=O)c2c(C)nc3ccc(Cl)cn23)no1,0,-1
COc1ccc(NC(=O)C2CCN(C(=O)CCNC(=O)Nc3c(Cl)cccc3C(F)(F)F)CC2)cc1,32,23
CN(C)S(=O)(=O)c1ccc(N=CC(C#N)C#N)cc1,0&3,-2&1
COc1ccc(-c2nc3ccccn3c2NC(C)(C)CC(C)(C)C)cc1OC,3&7,13&11
CN1C(=O)C2(CCN(C(=O)c3cc(Cl)c[nH]c3=O)CC2)c2ccccc21,23,14
COc1ccc(NC(=O)N(Cc2nc(C(=O)N3CCN(c4ccccc4F)CC3)cs2)C(C)C)cc1,7,11
COCCN(CCOC)C(=O)COC(=O)c1c2ccccc2cc2ccccc12,-1,-6
CN1CCN(Cc2nnc(-c3ccc(Cl)cc3)o2)c2cc(F)ccc21,4,3
O=C(NCc1ccon1)Nc1cccc(Cl)c1Oc1cccnc1,-2,6
O=C(CCC1CCN(C(=O)C2=CCCCC2)CC1)NC1CCN(Cc2ccccc2)C1 (centres undefined),7,1
Cc1nc2c(c(=O)n1C)CCN(C(=O)Nc1ccc3c(c1)OCO3)CC2,-4,-4
CCCCCCCC(=O)N1CCN(c2cc(Cl)nc(SCC(=O)NCCc3ccc(OC)c(OC)c3)n2)CC1C (centres undefined),7,2
